Screens from PubChem BioAssay.
FGF22 binding = FGF22 (human) thermal shift binding | Q9HCT0 | hit rate 1.5% among 340,000 | calls only at 9.99 µM | recombinant FGF22 thermal shift, SYPRO orange fluorescence; percent of sucrose octasulfate shift, DMSO zero;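 active means melting point raised past a set limit in the mean and every replicate; three in four hits are not shown here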
Target sequence (Q9HCT0 whole entry, looked up): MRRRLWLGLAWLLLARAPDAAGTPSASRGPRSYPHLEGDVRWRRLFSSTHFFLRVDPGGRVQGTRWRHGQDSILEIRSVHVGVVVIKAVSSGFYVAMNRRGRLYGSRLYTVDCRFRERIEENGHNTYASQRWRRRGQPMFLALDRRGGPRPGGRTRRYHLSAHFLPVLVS
AF4-AF9 inh = blocks AF4 peptide binding to human AF9; inhibition, % at 10 µM; AlphaScreen, biotin-AF4 peptide binding to FLAG-AF9; hit rate 0.47% among 350,000;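 active means every replicate reaching a set inhibition limit, whatever the replicate mean, cut at about 25% in these data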;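 further: 0% = plate neutral control median and 100% = total signal loss; the record names both 10 and 1 µM as test concentration; the first replicate is given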
Target sequence (P42568 whole entry, looked up): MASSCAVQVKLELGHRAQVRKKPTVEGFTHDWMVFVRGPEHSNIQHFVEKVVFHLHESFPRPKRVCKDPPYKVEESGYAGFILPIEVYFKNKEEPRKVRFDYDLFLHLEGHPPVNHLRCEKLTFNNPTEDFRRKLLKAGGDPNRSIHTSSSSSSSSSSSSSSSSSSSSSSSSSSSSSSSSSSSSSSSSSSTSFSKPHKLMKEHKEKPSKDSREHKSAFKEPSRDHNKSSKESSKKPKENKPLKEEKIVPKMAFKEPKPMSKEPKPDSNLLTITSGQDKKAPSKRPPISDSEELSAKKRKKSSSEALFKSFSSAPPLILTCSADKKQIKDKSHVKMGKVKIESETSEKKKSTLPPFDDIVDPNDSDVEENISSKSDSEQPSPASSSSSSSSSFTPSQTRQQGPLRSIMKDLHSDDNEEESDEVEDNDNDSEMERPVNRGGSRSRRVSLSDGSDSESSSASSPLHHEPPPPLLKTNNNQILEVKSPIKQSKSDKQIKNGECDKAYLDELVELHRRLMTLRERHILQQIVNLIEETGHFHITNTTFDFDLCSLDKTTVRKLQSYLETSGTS
rRNA inh HTS = inhibits bacterial ribosomal RNA function over humanized ribosomes | GFP signal change (wild-type ribosome), % (test concentration not listed) | hit rate 1.6% among 350,000 | E. coli WT GFP vs humanized-ribosome RFP mutants, fluorescence, 24 h; active compounds read low; DMSO median 0, no signal -100;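 active means significant combined selectivity score with lowered wild-type GFP, culture density cut under 30%, mutant RFP and density less affected; inactive means any of these conditions unmet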; further: one replicate is shown; some compounds called inactive have numbers as strong as hits
rRNA inh HTS OD600 = second read-out of rRNA inh HTS, no call of its own (marks repeat the call); OD600 change, %; measured here: OD600 growth;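 optical density of the mix in the first replicate; 0 = DMSO median and -100 = no signal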
rRNA inh HTS RFP = further read-out of rRNA inh HTS, marked with its call; RFP signal change, %; measured here: RFP humanized mutant strains;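 first replicate; 0 = DMSO median and -100 = no signal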
The depositor's hits bear a star; i = inactive. Only part of the results is shown; count on the stated rates, not on these rows.

SMILES	FGF22 binding	AF4-AF9 inh	rRNA inh HTS	rRNA inh HTS OD600	rRNA inh HTS RFP
CO[C@@H]1CN(C)C(=O)c2cc(NC(=O)c3cc(C)on3)ccc2OC[C@@H](C)N(S(=O)(=O)c2cccc(C)c2)C[C@H]1C	i	-1.2	-6.6	-6.8	5.4
C[C@H]1CN([C@@H](C)CO)C(=O)c2cc(NC(=O)Cc3ccccc3)ccc2O[C@@H]1CN(C)S(=O)(=O)c1cccs1	i	-24.5	-3.0	-12.0	-0.2
CC(=O)OCC1OC(n2c3c(cc(C#N)c2=S)CCCC3)C(OC(C)=O)C(OC(C)=O)C1OC(C)=O (stereo not given)	i	2.5	16.0	9.8	2.7
CCOc1cc(C=NN=C2c3ccccc3-c3ccccc32)ccc1O	i	14.0	-7.0	10.6	-4.1
CC1(C(=O)NS(=O)(=O)c2ccc(Br)cc2)CCN1C(=O)CC1CCCCC1 (stereo not given)	i	-2.4	-4.8	-7.8	0.0
CN[C@H]1C[C@H]2c3cc(Oc4ccccc4C)ccc3CCN2C(=O)[C@H]1[C@H](C)O	i	4.7	-7.7	-42.0	-8.4
C[C@@H]1CN([C@H](C)CO)C(=O)c2cccc(NS(=O)(=O)c3ccc(F)cc3)c2O[C@@H]1CN(C)Cc1ccc(C(=O)O)cc1	i	4.5	-0.2	5.1	-2.6
CO[C@@H](CN(C)S(=O)(=O)c1cn(C)cn1)[C@H](C)CN(C(=O)Nc1ccc(C(F)(F)F)cc1)[C@@H](C)CO	i	-1.1	-57.8	-86.5	-19.0
O=C(C[C@@H]1CC[C@H](NC(=O)c2ccc(F)cc2)[C@@H](CO)O1)NCCc1ccccc1	i	-1.7	0.5	-2.5	-0.1
O=C(c1cccc(F)c1)N1CCCCN2[C@H](CO)[C@@H](c3ccc(C#CC4(O)CCCC4)cc3)[C@@H]2C1	i	-2.4	-5.6	-3.8	3.6
CC(C)NC(=O)N(C)C[C@H]1Oc2ccc(N(C)C)cc2CC(=O)N([C@@H](C)CO)C[C@H]1C	i	0.0	0.5	-1.8	-0.4
COc1ccc(CN2C(=O)CN(S(C)(=O)=O)CC2(C)C(=O)NC(C)C)cc1 (stereo not given)	i	1.9	-8.1	-4.7	2.0
Cc1noc(C)c1S(=O)(=O)N(C)C[C@@H]1OCCCC[C@@H](C)Oc2ccc(NC(=O)Cc3ccccc3)cc2C(=O)N([C@@H](C)CO)C[C@H]1C	i	-3.7	1.2	-3.1	1.4
COc1ccc(S(=O)(=O)Nc2ccc3c(c2)C(=O)N([C@H](C)CO)C[C@H](C)[C@H](CN(C)S(=O)(=O)c2ccc(C)cc2)O3)cc1	i	-10.8	-1.5	-7.4	3.9
CCCNC(=O)[C@@H]1[C@@H](CO)[C@@H]2Cn3c(cccc3=O)[C@H]1N2C(=O)Nc1cc(F)ccc1F	i	3.1	1.3	6.5	1.2
COc1ccc(NC(=O)N(C)C[C@@H]2OCc3ccccc3-c3c(n(C)c4ccccc34)C(=O)N([C@H](C)CO)C[C@@H]2C)cc1	i	1.2	2.8	2.8	0.3
O=C(C[C@H]1C=C[C@H](NC(=O)Nc2ccccc2)[C@@H](CO)O1)NCc1ccccn1	i	-4.6	6.0	4.9	-0.7
O=C(NCc1cccs1)c1csc([C@@H]2O[C@H](CO)[C@H](O)[C@H](O)[C@H]2O)n1	i	-6.0	3.2	2.6	-2.4
C[C@H](CO)N1C[C@H](C)[C@@H](CN(C)C(=O)Nc2ccc(-c3ccccc3)cc2)OCc2ccccc2-c2ccccc2C1=O	i	0.2	3.5	9.3	-0.6
COc1ccc(/C=C2/CCCC(CN(C)C)C2=O)cc1 (stereo not given)	i	6.7	10.2	7.7	17.7
CCn1c(=O)n(C)c2c(=O)n(C)c(=O)n(C)c21	i	3.1	10.5	12.4	2.7
OC[C@H]1Nc2ccc(-c3ccccc3)cc2[C@H]2[C@@H]1CCN2Cc1ccc(F)cc1	i	6.0	2.8	15.6	0.5
C[C@H](CO)N1C[C@H](C)[C@H](CN(C)Cc2ccc(C(F)(F)F)cc2)Oc2ccc(NS(=O)(=O)c3cn(C)cn3)cc2CC1=O	i	1.0	-2.8	-9.8	2.4
COCC(=O)N1CCCCN2[C@@H](CO)[C@@H](c3ccc(-c4ccccc4)cc3)[C@@H]2C1	i	-2.1	0.7	4.8	-0.9
Cn1cnc(S(=O)(=O)N2CC[C@@H]3[C@H](CO)Nc4ccc(C#Cc5ccc(F)cc5)cc4[C@@H]32)c1	i	1.5	-9.0	-15.4	6.3
O=C1CC2c3ccccc3CCN2C(=O)CN1Cc1ccccc1 (stereo not given)	i	-3.1	20.6	11.7	3.3
COc1cccc(-c2ccc([C@@H]3[C@H](CO)N4CCCCN(C(=O)c5ccc(F)cc5)C[C@@H]34)cc2)c1	i	-2.7	-56.1	-74.4	-8.9
C[C@H]1CN(C2CCCCC2)C(=O)[C@@H]1CC(=O)Nc1ccccc1	i	1.5	-5.3	-6.2	-3.0
O=C(c1ccc(F)cc1)N1C[C@H]2[C@@H](c3ccccc31)[C@H](CO)N2C(=O)c1ccccc1	i	-0.4	4.0	6.2	-0.5
C[C@@H]1CN([C@H](C)CO)C(=O)Cc2cc(NC(=O)CCN3CCOCC3)ccc2O[C@@H]1CN(C)C(=O)Nc1ccc2c(c1)OCO2	i	-1.3	8.7	12.6	1.5
CO[C@H]1CN(C)C(=O)c2cc(NS(C)(=O)=O)ccc2OC[C@H](C)N(Cc2nccs2)C[C@H]1C	i	-1.7	0.7	1.8	-0.2
CCCC#Cc1cnc2c(c1)C(=O)N([C@@H](C)CO)C[C@@H](C)[C@@H](CN(C)C(=O)Nc1ccccc1OC)O2	i	-3.8	0.4	-0.9	0.9
O=C(Nc1ccc2c(c1)OCO2)N[C@@H]1CC[C@H](CCNC(=O)C2CCOCC2)O[C@H]1CO	i	-0.8	0.5	1.3	-1.6
CN(C)CCCNC(=O)[C@@H]1[C@@H](CO)[C@@H]2Cn3c(ccc(-c4cccc(C(=O)N(C)C)c4)c3=O)[C@H]1N2	i	0.4	-0.2	5.1	-2.6
C[C@H](CO)N1C[C@H](C)[C@@H](CN(C)C(=O)NC2CCCCC2)Oc2ccc(N(C)C)cc2C1=O	i	-1.5	1.1	0.4	-1.2
O=C(CN1C(=O)CSc2ccc(S(=O)(=O)N3CCOCC3)cc21)NCc1c(F)cccc1Cl	i	1.2	-5.9	-13.1	0.1
CO[C@H]1CN(C)C(=O)c2ccc(NC(=O)Nc3cccc(F)c3)cc2OC[C@@H](C)NC[C@H]1C	i	2.8	-0.6	-3.0	0.3
CCOC(=O)C1(C)CCN1C(=O)c1ccc(C(F)(F)F)cc1 (stereo not given)	i	-1.1	9.8	5.1	6.6
CCCC(=O)N1C[C@H]2[C@@H](c3ccccc31)[C@@H](CO)N2C(=O)CC1CC1	i	-4.1	-0.4	12.6	-2.4
CC(C)NC(=O)N1[C@@H](CO)[C@@H]2c3ccccc3N(C)C[C@@H]21	i	-1.9	5.9	9.3	0.3
Cc1noc(C)c1NC(=O)N(C)C[C@H]1Oc2ncc(C#CCN(C)C)cc2C(=O)N([C@@H](C)CO)C[C@@H]1C	i	-2.5	5.6	19.8	1.2
C[C@H]1CN([C@@H](C)CO)C(=O)c2cc(NS(=O)(=O)c3cccs3)ccc2O[C@H]1CN(C)S(C)(=O)=O	i	-1.7	-2.5	5.9	-0.1
Cn1ccc2c(-c3ccc(F)nc3)cc3c(c21)C1CCC3C1 (stereo not given)	i	7.2	6.5	-0.8	0.8
C[C@H]1CN([C@@H](C)CO)C(=O)Cc2cc(NC(=O)CCN3CCOCC3)ccc2O[C@H]1CN(C)Cc1ccc(C(=O)Nc2ccccc2N)cc1	i	4.0	-3.3	4.0	-2.7
CC(C)C[C@@H]1COc2cccc(N3CCCC3)c2S(=O)(=O)N1	i	3.5	-28.0*	-21.1*	-1.9*
CO[C@H](CN(C)S(=O)(=O)c1ccc(F)cc1)[C@@H](C)CN([C@@H](C)CO)S(=O)(=O)c1cccc(Cl)c1	i	0.2	-3.4	-14.5	1.9
O=C(C[C@H]1C=C[C@H](NS(=O)(=O)c2ccccc2F)[C@H](CO)O1)NCCCN1CCOCC1	i	0.1	2.0	6.6	-0.3
Nc1[nH]c(C(=O)c2ccccc2)c(-c2ccc(Cl)cc2Cl)c1C(=O)NCCc1c[nH]c2ccccc12	i	0.5	-3.7	-15.3	-2.2
C[C@@H]1CN([C@H](C)CO)C(=O)c2cc(NC(=O)CCN3CCOCC3)ccc2O[C@@H]1CN(C)Cc1ccc(C(F)(F)F)cc1	i	0.5	2.0	5.4	-0.2
CO[C@H]1CN(C)C(=O)c2ccc(NS(C)(=O)=O)cc2OC[C@@H](C)N(C(=O)C2CCC2)C[C@@H]1C	i	-3.4	1.6	1.8	-0.9
Cc1ccc(S(=O)(=O)N2C[C@]3(O)C[C@@H]4C(=O)N(c5ccccc5)C(=O)[C@@H]4C[C@]3(OC(=O)NCc3ccco3)C2)cc1	i	-1.9	-0.4	-0.2	0.3
O=C(NCCCCc1ccccc1)c1cccc(NC(=O)C2CCCC2)c1	i	-0.3	-28.0	-34.8	-8.3
CC(C)C#Cc1cnc2c(c1)C(=O)N([C@H](C)CO)C[C@H](C)[C@@H](CN(C)Cc1ccc3c(c1)OCO3)O2	i	1.4	3.7	11.3	-2.2
COc1ccccc1CNC(=O)C[C@H]1C[C@H]2c3cc(NC(=O)C4CCC4)ccc3O[C@H]2[C@H](CO)O1	i	-17.5	0.3	-3.7	0.3
CCCNc1ncc2c(=O)[nH][nH]c(=O)c2n1	i	-1.1	7.1	10.8	-2.2
C[C@@H]1CN([C@H](C)CO)C(=O)c2cc(NC(=O)NC3CCCCC3)ccc2O[C@@H](C)CCCCO[C@@H]1CN(C)S(=O)(=O)c1ccc(F)cc1	i	2.1	-3.8	-10.9	-1.3
CC(C)C#Cc1ccc([C@H]2[C@@H](CO)N3CCCCN(C(=O)c4ccc(F)cc4)C[C@@H]23)cc1	i	-1.3	-28.3	-65.4	-1.8
O=C(Nc1cccc(F)c1)N1CCCCN2[C@H](CO)[C@@H](c3ccc(-c4ccccc4F)cc3)[C@@H]2C1	i	-3.9	-31.2	-38.0	1.9
C[C@@H]1CN([C@@H](C)CO)C(=O)c2cc(C#Cc3ccccn3)cnc2O[C@H]1CN(C)CC1CCCC1	i	-0.4	4.5	17.5	-0.1
N#C[C@@H]1[C@H](c2ccc(C#CC3CCCCC3)cc2)[C@H](CO)N1C(=O)c1cccc(F)c1	i	-15.1	-5.3	-2.3	0.3
Further compounds.
SMILES	FGF22 binding	AF4-AF9 inh	rRNA inh HTS	rRNA inh HTS OD600	rRNA inh HTS RFP
Cc1noc(C)c1NC(=O)Nc1cccc2c1O[C@@H](CN(C)C(=O)Nc1ccccc1)[C@H](C)CN([C@@H](C)CO)C2=O	i	-0.2	2.4	4.8	-0.7
CO[C@H]1CN(C)C(=O)c2ccc(NS(=O)(=O)c3cccc(F)c3)cc2OC[C@H](C)N(Cc2cc(F)ccc2F)C[C@H]1C	i	1.6	-3.4	-8.9	2.3
C(=C\c1ccccc1)/CN1CCN(C(c2ccccc2)c2nnnn2Cc2ccccc2)CC1 (stereo not given)	i	8.7	-46.6	-77.2	-11.2
O=C(NC(c1ccccc1)c1cnccn1)C1CCN(Cc2ccc(Cl)c(Cl)c2)CC1 (stereo not given)	i	3.6	-3.0	3.3	-1.0
COc1ccc(NC(=O)COc2ccccc2Cl)cc1S(=O)(=O)N1CCCCC1	i	-6.9	-13.9	-46.9	-0.2
C[C@@H]1CN([C@@H](C)CO)S(=O)(=O)c2ccc(-c3cccc(F)c3)cc2O[C@H]1CN(C)S(=O)(=O)c1ccccc1	i	-0.2	-4.9	-9.2	0.1
O=C(c1cccnc1)N1CC(=O)N2[C@H](CO)[C@H](c3ccc(C#CCC4CCCC4)cc3)[C@@H]2C1	i	0.4	-10.1	-56.1	12.2
CN(C)CCCNC(=O)C[C@@H]1C=C[C@@H](NS(=O)(=O)c2ccccc2)[C@@H](CO)O1	i	3.3	4.2	8.3	-1.1
CC(C)CC#Cc1ccc2c(c1)O[C@@H](CN(C)Cc1cccc(F)c1)[C@@H](C)CN([C@H](C)CO)S2(=O)=O	i	-1.3	3.6	-2.6	0.8

Complete entries from above. Order of screens: FGF22 binding	AF4-AF9 inh	rRNA inh HTS	rRNA inh HTS OD600	rRNA inh HTS RFP
Results for CO[C@@H]1CN(C)C(=O)c2cc(NC(=O)c3cc(C)on3)ccc2OC[C@@H](C)N(S(=O)(=O)c2cccc(C)c2)C[C@H]1C = i	-1.2	-6.6	-6.8	5.4
Results for CO[C@H]1CN(C)C(=O)c2cc(NS(C)(=O)=O)ccc2OC[C@H](C)N(Cc2nccs2)C[C@H]1C = i	-1.7	0.7	1.8	-0.2
Results for O=C(NC(c1ccccc1)c1cnccn1)C1CCN(Cc2ccc(Cl)c(Cl)c2)CC1 (stereo not given) = i	3.6	-3.0	3.3	-1.0
Results for O=C(Nc1cccc(F)c1)N1CCCCN2[C@H](CO)[C@@H](c3ccc(-c4ccccc4F)cc3)[C@@H]2C1 = i	-3.9	-31.2	-38.0	1.9
Results for CC(=O)OCC1OC(n2c3c(cc(C#N)c2=S)CCCC3)C(OC(C)=O)C(OC(C)=O)C1OC(C)=O (stereo not given) = i	2.5	16.0	9.8	2.7
